# YB-1 expression – YB-1 expression inhibition; delta delta Cp (YB-1 minus CDIP) (concentration not given with the values); 0.37% of 30,000 active; U2OS, qRT-PCR YB-1 vs CDIP delta delta Cp, 16 h; active compounds read high; zero = DMSO, each unit about twofold; AID 434959;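 active = delta delta Cp rounded down to an integer at or above 3, about 3 SD of DMSO wells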;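 note: higher means less YB-1 transcript or more CDIP transcript relative to DMSO; stock transfer was 100 nL into about 100 µL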
# PD-1 reverse act – reversal of PD-1 mediated T-cell inhibition; primary human CD4 T cells, PD-L1 beads, CellTiter-Glo 96 h; activation, % (test concentration not listed); 29,000 tested, under 10 active;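 active = replicate mean of 50% or more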;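 note: 0% = median vehicle wells and 100% = positive control; 100 nL library stock added to about 50 µL; numbers are from one replicate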
# MITF inhib – MITF inhibition. 0.28% of 37,000 active. inhibition, % (no concentration beside the values). TRPM1 promoter luciferase, luminescence, 24 h;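 active = most replicates at 85% or more, or half of them and the mean; inconclusive = half reach 85% but not the mean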;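 note: human melanocyte line stably carrying TRPM1 promoter luciferase reporter; 0% = vehicle wells and 100% = a positive control; the first replicate is given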
# Shh pathway inh – Sonic Hedgehog pathway inhibition; inhibition, % (test concentration not listed); Shh-LIGHT2 Gli-luciferase reporter, 30 h; 2.1% of 22,000 active; AID 2313;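 active = replicate mean of 65% or more; inconclusive = mean lower but half the replicates past it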;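 note: pathway switched on by Shh-conditioned medium diluted 1 in 25 in low serum; 100 nL library stock added to about 40 µL; 0% = median of neutral wells and 100% = positive control level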
# The depositor's hits bear a star; ? = inconclusive; . = no result given.
SMILES,YB-1 expression,PD-1 reverse act,MITF inhib,Shh pathway inh
Cc1noc(C)c1NC(=O)Nc1cccc2c1O[C@H](CN(C)Cc1ccc(C(F)(F)F)cc1)[C@@H](C)CN([C@H](C)CO)C2=O,-0.181,0.4,0.9,-5.9
CC(C)NC(=O)N(C)C[C@@H]1Oc2ccc(N(C)C)cc2C(=O)N([C@@H](C)CO)C[C@@H]1C,-0.738,1.4,6.0,-5.2
C[C@H]1CN([C@@H](C)CO)C(=O)c2cc(NC(=O)Nc3ccc(F)cc3)ccc2O[C@@H]1CN(C)C(=O)Nc1ccc(C(F)(F)F)cc1,-0.00038,-0.4,14.1,-32.4
CC(=O)Nc1cccc(NC(=S)NCc2ccco2)c1,.,-0.8,-12.7,.
C[C@@H]1CN([C@@H](C)CO)C(=O)Cc2cc(NC(=O)CCN3CCOCC3)ccc2O[C@@H]1CN(C)S(=O)(=O)c1cn(C)cn1,0.236,2.3,-0.2,-5.1
C[C@H]1CN([C@@H](C)CO)C(=O)c2cccc(NC(=O)Nc3ccc(F)cc3)c2O[C@@H]1CN(C)Cc1ccc(-c2ccccc2)cc1,0.182,.,14.3,-16.0
CN(CCO)C(=O)c1ccc2c(c1)C(=O)c1ccccc1-2,0.657,0.2,-2.7,38.4
COc1cc(C2NC(=O)NC(c3ccccc3)=C2C(=O)c2ccccc2)cc(Cl)c1OCC(N)=O (centres undefined),.,-5.1,-21.7,.
C[C@H](CO)N1C[C@H](C)[C@@H](CN(C)Cc2ccc(C(=O)O)cc2)Oc2ccc(NC(=O)CCC(F)(F)F)cc2C1=O,0.354,.,-9.1,-62.9
CC(C)NC(=O)Nc1ccc2c(c1)C(=O)N([C@H](C)CO)C[C@H](C)[C@H](CN(C)C(=O)Nc1ccc(C(F)(F)F)cc1)O2,0.172,-2.2,2.7,-15.3
COc1ccc(NC(=O)Nc2ccc3c(c2)CC(=O)N([C@H](C)CO)C[C@H](C)[C@H](CN(C)Cc2ccc(-c4ccccc4)cc2)O3)cc1,0.0116,-0.4,-1.5,-21.7
N#Cc1sc2sc(C#N)c(-c3ccco3)c2c1N,0.12,-1.6,17.9,.
Cc1cccc(C)c1N(CC(=O)NC1CCCCC1)S(C)(=O)=O,.,0.6,-3.1,.
COc1ccc(-c2nc3cc(C(C)C)ccc3o2)cc1NC(=O)COc1ccc(C)cc1,.,0.0,7.7,.
Cc1noc(C)c1NC(=O)N(C)C[C@H]1Oc2c(NC(=O)NC(C)C)cccc2C(=O)N([C@H](C)CO)C[C@H]1C,-0.0242,1.3,-1.1,56.5
C[C@@H]1CN([C@@H](C)CO)C(=O)c2cccc(NC(=O)NC3CCCCC3)c2O[C@@H]1CN(C)Cc1ccc(Cl)c(Cl)c1,0.579,-1.7,-0.3,-15.7
O=C(CSc1nnc(-c2ccncc2)o1)c1ccc2ccccc2c1,.,-8.2,-13.5,.
Cc1ccc2oc(C(=O)Nc3sc4c(c3C(=O)NC3CCS(=O)(=O)C3)CCC4)c(C)c2c1 (centres undefined),.,-10.9,11.5,.
CC(C)NC(=O)N(C)C[C@H]1Oc2ccc(NC(=O)Nc3cccc4ccccc34)cc2C(=O)N([C@H](C)CO)C[C@H]1C,-0.102,0.8,-4.8,-18.7
CC(C)NC(=O)Nc1ccc2c(c1)C(=O)N([C@H](C)CO)C[C@H](C)[C@@H](CN(C)CC1CC1)OCCCC[C@@H](C)O2,-0.0314,.,4.0,.
COc1ccc(NC(=O)Nc2ccc3c(c2)C(=O)N([C@@H](C)CO)C[C@H](C)[C@H](CN(C)Cc2ccc4c(c2)OCO4)O3)cc1,0.417,0.6,9.8,-34.2
O=C(NCCc1ccccc1)c1ccc(-c2ccccc2)cc1,-0.721,0.9,9.8,.
C[C@@H]1CN([C@H](C)CO)C(=O)c2cccc(NC(=O)C3CCCCC3)c2O[C@H]1CN(C)C(=O)Nc1ccc(C(F)(F)F)cc1,-0.916,0.4,-1.3,-20.7
C[C@H]1CN([C@@H](C)CO)C(=O)c2cc(NC(=O)Nc3cccc4ccccc34)ccc2O[C@@H]1CN(C)C(=O)Nc1ccc(C(F)(F)F)cc1,-0.147,-5.0,32.1,-45.4
O=C(/C=C/c1ccccc1)CC(=O)/C=C/c1ccccc1,-0.159,0.3,-9.7,-12.0
C[C@@H]1CN([C@@H](C)CO)C(=O)c2cccc(NS(=O)(=O)c3ccc(F)cc3)c2O[C@@H]1CN(C)S(C)(=O)=O,0.424,0.2,4.5,13.9
Cn1c(SCC(=O)Nc2ccc(Br)cc2Cl)nnc1-c1ccncc1,.,-1.2,-10.2,.
C[C@@H]1CN([C@H](C)CO)C(=O)Cc2cc(NC(=O)Nc3ccc4c(c3)OCO4)ccc2O[C@H]1CN(C)C(=O)Nc1ccccc1,-0.708,-1.7,-1.7,.
C[C@@H]1CN([C@@H](C)CO)C(=O)Cc2cc(NC(=O)CCN3CCOCC3)ccc2O[C@@H]1CN(C)CC1CCCCC1,0.0624,0.4,-3.6,-22.0
CC1(C)CC(=O)C2=C(C1)Nc1ccccc1N(C(=O)Cc1ccccc1)C2c1ccc(-c2ccccc2[N+](=O)[O-])o1 (centres undefined),.,-4.3,14.4,.

# Fetched one by one from the entries so far, 4 records:
SMILES,YB-1 expression,PD-1 reverse act,MITF inhib,Shh pathway inh
C[C@H]1CN([C@@H](C)CO)C(=O)c2cc(NC(=O)Nc3cccc4ccccc34)ccc2O[C@@H]1CN(C)C(=O)Nc1ccc(C(F)(F)F)cc1,-0.147,-5.0,32.1,-45.4
C[C@@H]1CN([C@H](C)CO)C(=O)c2cccc(NC(=O)C3CCCCC3)c2O[C@H]1CN(C)C(=O)Nc1ccc(C(F)(F)F)cc1,-0.916,0.4,-1.3,-20.7
C[C@@H]1CN([C@@H](C)CO)C(=O)c2cccc(NS(=O)(=O)c3ccc(F)cc3)c2O[C@@H]1CN(C)S(C)(=O)=O,0.424,0.2,4.5,13.9
CC1(C)CC(=O)C2=C(C1)Nc1ccccc1N(C(=O)Cc1ccccc1)C2c1ccc(-c2ccccc2[N+](=O)[O-])o1 (centres undefined),.,-4.3,14.4,.

# Remaining list, next part:
SMILES,YB-1 expression,PD-1 reverse act,MITF inhib,Shh pathway inh
C[C@@H]1O[C@@H](O[C@H]2CC[C@@]3(C)C(CC[C@]4(C)C3CC=C3C5CC(C)(C)CC[C@]5(C(=O)O[C@@H]5O[C@H](CO)[C@@H](O)[C@H](O)[C@H]5O)CC[C@]34C(=O)O)C2(C)C)[C@H](O)[C@H](O)[C@H]1O (some centres undefined),-0.204,0.9,4.1,-4.7
COc1ccc(NC(=O)N(C)C[C@@H]2Oc3ccc(NC(=O)C4CCCCC4)cc3CC(=O)N([C@@H](C)CO)C[C@@H]2C)cc1,-0.0155,0.5,-3.9,.
COc1ccc(S(=O)(=O)N(C)C[C@@H]2Oc3ccc(NC(=O)Nc4ccccc4)cc3C(=O)N([C@H](C)CO)C[C@@H]2C)cc1,-0.0346,-0.6,-4.2,.
Nc1ncc(-c2cc3ccccc3oc2=O)s1,-0.123,0.0,50.1,.
Cc1cc(C(=O)Nc2cccc3c2O[C@@H](CN(C)C(=O)Nc2ccccc2)[C@@H](C)CN([C@@H](C)CO)C3=O)n(C)n1,0.00805,.,-25.6,-42.7
C[C@H](CO)N1C[C@H](C)[C@H](CN(C)C(=O)Nc2cccc3ccccc23)Oc2ccc(NC(=O)Cc3cn(C)c4ccccc34)cc2CC1=O,0.209,-0.2,17.9,11.6
N/C(=N\O)c1ccc(Cl)cc1,0.102,0.4,9.0,-13.5
CC(=O)N1[C@@H](c2ccc(C)cc2)SC(C)(C)[C@@H]1C(=O)O,-0.179,0.2,1.2,-17.6
Cc1c(NC2CS(=O)(=O)CC2O)c(=O)n(-c2ccccc2)n1C (centres undefined),-0.28,8.1,-4.9,-31.3
Cc1ccc(S(=O)(=O)N2CCCC(C(=O)Nc3ccc4c(c3)OCCO4)C2)cc1 (centres undefined),.,-0.6,1.1,.
CNC(=S)Nc1cscc1S(=O)(=O)c1ccc(Cl)cc1,-0.773,-0.5,11.1,.
Cc1noc(C)c1NC(=O)N(C)C[C@H]1Oc2c(NC(=O)CCCCCC(=O)Nc3ccccc3N)cccc2C(=O)N([C@@H](C)CO)C[C@H]1C,-0.0484,2.5,-8.7,.
c1ccc(SCCN2CCN(CCSc3ccccc3)CC2)cc1,0.422,-0.3,1.2,?
O=C(/C=C/Sc1ccccn1)c1ccccc1,0.844,-2.9,64.8,?
Cc1noc(C)c1NC(=O)Nc1ccc2c(c1)CC(=O)N([C@@H](C)CO)C[C@@H](C)[C@@H](CN(C)S(C)(=O)=O)O2,0.123,0.1,6.2,-13.6
O=C(Cc1ccccc1[N+](=O)[O-])Nc1ccc2c(c1)OCCO2,.,0.9,-59.3,.
C[C@@H]1CN([C@H](C)CO)C(=O)c2cc(NS(=O)(=O)c3cccs3)ccc2O[C@H]1CN(C)S(=O)(=O)c1ccc(F)cc1,0.0624,2.4,-20.4,.
CCOC(=O)c1c(NC(=O)CCN2CCC(C)CC2)sc2c1CC(C)(C)OC2,.,-8.4,-17.7,.
C[C@H]1CN([C@@H](C)CO)C(=O)Cc2cc(NC(=O)CCC(F)(F)F)ccc2O[C@H]1CN(C)Cc1ccc(C(=O)O)cc1,0.201,2.8,-14.4,-30.8
C[C@H]1CN([C@@H](C)CO)C(=O)c2cc(NS(=O)(=O)c3cn(C)cn3)ccc2O[C@H]1CN(C)S(=O)(=O)c1ccc(Cl)cc1,-0.129,1.6,-0.4,4.6
C[C@H]1CN([C@@H](C)CO)C(=O)c2cc(NC(=O)Cn3cnnn3)ccc2O[C@@H]1CN(C)C(=O)Nc1ccccc1,0.0943,0.7,5.7,-7.6
C[C@H]1CN([C@@H](C)CO)C(=O)c2cc(NC(=O)Nc3ccc4c(c3)OCO4)ccc2O[C@H]1CN(C)Cc1ccc2c(c1)OCO2,0.196,0.2,17.3,.
C[C@@H]1CN([C@H](C)CO)C(=O)c2cc(N(C)C)ccc2O[C@@H]1CN(C)C(=O)Nc1ccccc1,-0.205,0.5,-7.0,.
C=C[C@@]12COC(=O)C(=C)[C@@H]1[C@@H](O)[C@H](C(=C)C(=O)OC)[C@@H](O)C2,-0.27,-10.2,-22.1,8.5
Cc1noc(C)c1NC(=O)N(C)C[C@@H]1Oc2c(NS(=O)(=O)c3cn(C)cn3)cccc2C(=O)N([C@H](C)CO)C[C@@H]1C,1.4,2.5,6.0,-51.0
Cc1ccc(C)c(NC(=O)CSc2nc(C)nc3sc(C)c(C)c23)c1,.,0.6,3.6,.
COc1ccc(S(=O)(=O)Nc2cccc3c2O[C@H](CN(C)C(=O)NC(C)C)[C@H](C)CN([C@H](C)CO)C3=O)cc1,-0.394,.,-9.5,4.9
COc1ccc(NC(=O)N(C)C[C@H]2Oc3ccc(NS(=O)(=O)c4ccc(OC)cc4)cc3CC(=O)N([C@@H](C)CO)C[C@H]2C)cc1,-0.0928,-0.1,-4.8,-1.3
COC(=O)c1ccccc1NC(=O)c1ccc(NC(=O)COc2ccccc2C)cc1,.,-1.3,19.7,.
CC(=O)c1cccc(NC(=O)C(C)NS(=O)(=O)c2ccc(C)cc2)c1 (centres undefined),.,0.0,10.5,.
CCOC(=O)c1c(NC(=O)c2ccc(C)c(S(=O)(=O)N3CCCCCC3)c2)sc(C)c1C,.,-3.3,-3.1,.
C[C@H](CO)N1C[C@H](C)[C@@H](CN(C)Cc2ccc(Oc3ccccc3)cc2)Oc2ccc(NC(=O)Cc3cn(C)c4ccccc34)cc2C1=O,0.261,-4.5,27.0,.
C[C@H](CO)N1C[C@H](C)[C@@H](CN(C)Cc2ccc(-c3ccccc3)cc2)Oc2ccc(NS(=O)(=O)c3cn(C)cn3)cc2C1=O,-0.238,0.7,5.7,-9.6
C[C@@H]1CN([C@H](C)CO)C(=O)Cc2cc(NC(=O)Nc3ccc(C(F)(F)F)cc3)ccc2O[C@@H]1CN(C)CC1CCCCC1,-9.58,-6.7,17.1,-0.3
C[C@@H]1CCCCO[C@@H](CN(C)Cc2ccncc2)[C@@H](C)CN([C@H](C)CO)C(=O)c2cc(NC(=O)C3CCCCC3)ccc2O1,0.162,0.3,-3.0,-18.5
CC(C)NC(=O)Nc1ccc2c(c1)C(=O)N([C@H](C)CO)C[C@@H](C)[C@@H](CN(C)Cc1ccc(Cl)c(Cl)c1)O2,0.0331,0.0,-13.3,.
C[C@@H]1CN([C@H](C)CO)C(=O)c2cc(NC(=O)Cc3cn(C)c4ccccc34)ccc2O[C@H]1CN(C)S(=O)(=O)c1cn(C)cn1,-0.22,2.9,7.3,.
COC(=O)C1=CO[C@@H](O[C@@H]2O[C@H](CO)[C@@H](O)[C@H](O)[C@H]2O)[C@@H]2[C@@H](C)[C@@H](O)[C@@H](OC(=O)/C=C/c3ccc(O)c(O)c3)[C@H]12,0.965,.,.,-11.7
CCOc1cc(C)c(C(C)C)cc1S(=O)(=O)NC1CC(C)(C)NC(C)(C)C1,.,4.3,-16.2,.
COc1ccc(S(=O)(=O)N(C)C[C@H]2Oc3ccc(NS(=O)(=O)c4ccc(C)cc4)cc3C(=O)N([C@H](C)CO)C[C@@H]2C)cc1,-0.367,.,1.3,-7.8
C[C@H]1CN([C@@H](C)CO)C(=O)c2cccc(NS(=O)(=O)c3ccc(F)cc3)c2O[C@H]1CN(C)Cc1ccc(Oc2ccccc2)cc1,-0.0547,-2.0,-7.4,29.0
NC(=O)c1c(NC(=O)c2cnn3c(C(F)F)cc(-c4ccccc4)nc23)sc2c1CCCC2,.,-6.0,66.4,.

# Source: PubChem (Broad Institute)

# A portion of the library; the hit share may differ from the screen's.
